# RE007 growth inh: less growth of the S. pombe RE007 Vpr strain | S. pombe RE007 Vpr strain, BacTiter-Glo ATP luminescence, 24 h; control for the full effect not named in the record | Potency, µM (series often up to 92.2 µM), for inactives: top-dose activity change, negative = less growth | actives 0.21% (n = 360,000); active = well fitted falling curve with a large enough effect; inconclusive = small, poorly fitted or top-dose-only effect; inactive = no such curve, though single readings can be large or run the other way;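 further: on the % scale 0 is the no-effect control and ±100 the full control effect; nearly all actives have a fitted effect of over 50% in size; the assay follows cell death caused by Vpr and the record does not say whether a fall means rescue or toxicity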
#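 Fission yeast strain RE007, carrying one chromosomally integrated HIV-1 vpr copy, was seeded at OD 0.01 in PMG+AL medium with 23 nL pinned compound. After 24 h at 30 °C and 99% humidity, viability was read by BacTiter-Glo luminescence.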
# StopGo reporter: lowers the luciferase signal of an FMDV 2A StopGo reporter. human cells with a luciferase reporter of 2A StopGo recoding; control for the full effect not named in the record. actives 1.2% (n = 410,000). Potency, µM (doses to about 57.9 µM), inactives show at the top dose signal change, negative = less light; active = well fitted falling curve with a large enough effect; inconclusive = small, poorly fitted or top-dose-only effect; inactive = no such curve, though single readings can be large or run the other way; tested in HEK293T cells; further: on the % scale 0 is the no-effect control and ±100 the full control effect; nearly all actives have a fitted effect of over 45% in size; luciferase light after 4 h
# NS1 inh: influenza NS1 inhibition. AID 2326. actives 0.4% (n = 270,000). S. cerevisiae slowed by influenza A NS1, growth recovery by OD600. Potency, µM (titrated, usually from 46.1 µM), for inactives: at the top dose activity, positive = more growth; active means well fitted rising curve with a large enough effect; inconclusive means small, poorly fitted or top-dose-only effect; inactive means no such curve, though single readings can be large or run the other way; further: nearly all actives have a fitted effect of over 50% in size
#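 Read-out: OD600 growth recovery of NS1-expressing budding yeast. Cells grown overnight at 30C in -URA glucose medium, washed, resuspended and diluted 1:100 in 2% galactose assay medium, pH 6.0. Same strain lacking NS1 served as positive control.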
# Cruzain inh noDet: cruzain (T. cruzi) inhibition without detergent | P25779 | purified cruzain, Z-FR-AMC fluorescence, no detergent | Potency, µM, inactives show max response, negative = inhibition, most hits filed as inhibitors | actives 2.3% (n = 200,000);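 further: plate controls were enzyme without inhibitor for no effect and buffer without enzyme for full effect; nearly all actives have a fitted effect of over 40% in size; top concentration of the series not given in the record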
# Target sequence (P25779 123-467 limits assumed): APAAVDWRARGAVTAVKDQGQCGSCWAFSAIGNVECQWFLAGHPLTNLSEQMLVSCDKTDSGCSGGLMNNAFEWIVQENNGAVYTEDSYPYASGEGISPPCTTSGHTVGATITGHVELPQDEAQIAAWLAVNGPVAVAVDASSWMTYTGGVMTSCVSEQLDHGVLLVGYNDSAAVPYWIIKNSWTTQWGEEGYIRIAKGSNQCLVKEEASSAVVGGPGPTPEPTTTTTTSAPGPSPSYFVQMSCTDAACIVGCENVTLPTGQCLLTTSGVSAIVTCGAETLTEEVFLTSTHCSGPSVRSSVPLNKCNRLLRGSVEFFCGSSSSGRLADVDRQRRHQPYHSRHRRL
#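 Purified cruzain at 1.5 nM, pre-incubated 15 min with compound at room temperature in 100 mM sodium acetate pH 5.5, 5 mM DTT, 0.00005% Triton X-100. Reaction started with 2 uM Z-FR-AMC; AMC fluorescence increase over 60 s gives rate.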
# Cruzain inh Det: cruzain (T. cruzi) inhibition with detergent; Potency, µM, for the others: max response, negative = inhibition, most hits filed as inhibitors; P25779; purified cruzain, Z-FR-AMC fluorescence, 0.01% Triton; actives 0.43% (n = 200,000); AID 1478;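 further: plate controls were neutral wells for no effect and buffer without enzyme for full effect; nearly all actives have a fitted effect of over 40% in size; top concentration of the series not given in the record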
#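 Compounds were screened in titration against cruzain (1.5 nM) with 0.01% Triton X-100 to counter colloidal aggregation. Activity was the AMC fluorescence increase over 60 s after adding 2 uM Z-FR-AMC at pH 5.5.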
# SARS PLpro yeast: SARS-CoV PLP inhibition in yeast | S. cerevisiae expressing SARS-CoV PLpro, growth rescue; control for the full effect not named in the record | Potency, µM (series often up to 32.9 µM), for the others: at the top dose activity, positive = growth rescue | actives 0.19% (n = 330,000) | AID 485353; active means well fitted rising curve with a large enough effect; inconclusive means small, poorly fitted or top-dose-only effect; inactive means no such curve, though single readings can be large or run the other way; further: 0% is about no effect; nearly all actives have a fitted effect of over 55% in size; growth read by luminescence after 48 h
# Marburg entry inh: blocks Marburg virus binding to or entry into cells. Marburg virus pseudotyped entry inhibition, cell reporter; control for the full effect not named in the record; about a third of the inactives were read at about 46 µM. Potency, µM (series often up to 37.8 µM), inactives show top-dose activity change, negative = inhibition, actives largely listed as inhibitors. actives 1.8% (n = 300,000); active = well fitted inhibition curve with a large enough effect; inconclusive = small, poorly fitted or top-dose-only effect, or effect the other way; inactive = flat fitted curve, though single readings scatter; tested in HEK293 cells; about a fifth of its hits are not listed in these tables; further: on the % scale 0 is the no-effect control and ±100 the full control effect; luciferase read-out
# LASV entry inh: Lassa virus entry inhibition. Potency, µM (highest dose often 37.9 µM), inactives show top-dose activity change, negative = inhibition, most hits filed as inhibitors. Lassa virus pseudotype entry inhibition, cell reporter; control for the full effect not named in the record. AID 540256. actives 1.2% (n = 300,000); active means well fitted inhibition curve with a large enough effect; inconclusive means small, poorly fitted or top-dose-only effect, or effect the other way; inactive means flat fitted curve, though single readings scatter; tested in HEK293 cells; further: on the % scale 0 is the no-effect control and ±100 the full control effect; nearly all actives have a fitted effect of over 50% in size; luciferase read-out
# * marks the source's active call; other numbers are inactive results; ? = inconclusive; . = not tested or not shown; & = joins results of further samples; [ ] = another dose, or the depositor's remark. Unless noted, the call rests on the fitted dose curve; in most records, active means well fitted curve in the direction sought with a large enough effect; inconclusive means small, poorly fitted or top-dose-only effect, or another doubt; inactive means no such curve, though single readings can be large; an effect the other way counts as inactive or inconclusive. Potency means the concentration at half of the fitted maximal effect.
SMILES,RE007 growth inh,StopGo reporter,NS1 inh,Cruzain inh noDet,Cruzain inh Det,SARS PLpro yeast,Marburg entry inh,LASV entry inh
CC(C(=O)Nc1cc(C(F)(F)F)ccc1Cl)n1nnc2sc3c(c2c1=O)CCCC3 (stereo not drawn),.,-25%,.,3%,1.1%,.,12%[46.1 µM],2%[46.1 µM]
O=C(NC1CCN(S(=O)(=O)c2ccc(Cl)c(F)c2)CC1)c1cccnc1,-6%,7%,1%,.,.,1%,-9%[46.1 µM],-5%
COc1cc(/C=C/C(=O)Nc2cc(S(=O)(=O)N3CCOCC3)ccc2N2CCCC2)cc(OC)c1OC,5%,1%,.,.,.,0%,5%[46.1 µM],-2%[46.1 µM]
NC(=O)C1CCN(C(=O)c2ccc3nc(N4CCCCC4)sc3c2)CC1,1%,43%[activator],2%,.,.,-2%,?,-15%
COc1cccc(OC)c1C(=O)O/N=C(\N)c1ccncc1,19%,-10%,-1%,.,.,4%,?,-29%
CCN(CC)CCCNc1nc(-n2nc(C)cc2C)nc2sc3c(c12)CC(C)(C)OC3,-1%,16%,-4%,.,.,0%,?,?
Cn1cc(-c2nnnn2-c2ccc(Cl)cc2)c(C(F)(F)F)n1,2%,-10%,0%,-3%,6.2%,-1%,1%,3%
CCN(CC)S(=O)(=O)c1ccc(N2CCOCC2)c(NC(=O)CN2C(=O)NC(C)(c3ccccc3)C2=O)c1 (stereo not drawn),-13%,-4%,.,.,.,4%,-12%[46.1 µM],?
CCOc1ccc(C(=O)OCc2nnc(-c3cccs3)o2)cc1OC,-17%,-21%,-68%,-1%,-1.7%,-1%,-1%,0%
COc1cc(OC)cc(C(=O)N[C@H](C(=O)Nc2c(C)n(C)n(-c3ccccc3)c2=O)C(C)C)c1,?,19%,.,.,.,-2%,13%,11%
C=CCn1c(=NC(=O)c2cc(Cl)sc2Cl)sc2cc(S(N)(=O)=O)ccc21,-27%,-18%,?,-1%,-2.3%,12%,-20%,10%
CCOC(=O)/C(C#N)=C\c1ccc(OCC(=O)Nc2ccc(C)cc2C)c(OC)c1,22%,-3%,4%,5%,-0.1%,2%,-1%,-6%

# Compound profiles, from the list above. Order of screens: RE007 growth inh | StopGo reporter | NS1 inh | Cruzain inh noDet | Cruzain inh Det | SARS PLpro yeast | Marburg entry inh | LASV entry inh
# Entry for C=CCn1c(=NC(=O)c2cc(Cl)sc2Cl)sc2cc(S(N)(=O)=O)ccc21 → -27% | -18% | ? | -1% | -2.3% | 12% | -20% | 10%
# Entry for CCOC(=O)/C(C#N)=C\c1ccc(OCC(=O)Nc2ccc(C)cc2C)c(OC)c1 → 22% | -3% | 4% | 5% | -0.1% | 2% | -1% | -6%
# Entry for NC(=O)C1CCN(C(=O)c2ccc3nc(N4CCCCC4)sc3c2)CC1 → 1% | 43%[activator] | 2% | . | . | -2% | ? | -15%

# No new results follow: an excerpt of the list.
SMILES,RE007 growth inh,StopGo reporter,NS1 inh,Cruzain inh noDet,Cruzain inh Det,SARS PLpro yeast,Marburg entry inh,LASV entry inh
CCN(CC)CCCNc1nc(-n2nc(C)cc2C)nc2sc3c(c12)CC(C)(C)OC3,-1%,16%,-4%,.,.,0%,?,?
Cn1cc(-c2nnnn2-c2ccc(Cl)cc2)c(C(F)(F)F)n1,2%,-10%,0%,-3%,6.2%,-1%,1%,3%

# New compounds follow:
SMILES,RE007 growth inh,StopGo reporter,NS1 inh,Cruzain inh noDet,Cruzain inh Det,SARS PLpro yeast,Marburg entry inh,LASV entry inh
Cc1cc(NC(=O)Nc2cccs2)no1,-5%,43%[activator],2%,-12%,-4.5%,-11%,14%,13%
CCOc1ccc(C2C(C(=O)Nc3ccccc3C)=C(C)Nc3nnnn32)cc1 (stereo not drawn),.,6%,.,-5%,-1.3%,.,5%[46.1 µM],-21%[46.1 µM]
O=C1C(=O)N(c2nccs2)C(c2ccccc2F)/C1=C(\O)c1ccc2c(c1)OCCO2 (stereo not drawn),3%,-11%,13%,.,.,2%,.,.
NS(=O)(=O)c1ccc(-c2ccc(C=C3C(=O)c4ccccc4C3=O)o2)cc1,-7%,-8%,-4%,.,.,-9%,.,.
COc1ccc(NC(=O)CC2C(=O)N(C)C(=S)N2Cc2ccc3c(c2)OCO3)cc1 (stereo not drawn),-2%,15%,20%,-4%,-3.7%,24%,11µM*,-21%
COc1ccc(-c2noc(COc3cc(C)c(Br)c(C)c3)n2)cc1OC,.,-21%,.,5%,0.1%,.,-1%[46.1 µM],5%[46.1 µM]
O=C(CN1C(=O)NC(Cc2c[nH]c3ccccc23)C1=O)NCC(F)(F)F (stereo not drawn),-6%,-19%,6%,.,.,2%,.,.
COC(=O)c1c(C)[nH]c(C(=O)NCc2ccco2)c1C,10%,38%[activator],.,.,.,4%,-13%[46.1 µM],8%
Cc1cccnc1NC(=O)c1cc2ccccc2oc1=O,-21%,-50%,1%,.,.,3%,?,.
CCOC(=O)c1nc(NCc2ccccc2C)c2ccccc2n1,4%,-28%,.,.,.,-1%,-16%[46.1 µM],-12%
COc1ccc(OC)c(NC(=O)C(CC(=O)O)Cc2ccc(Cl)cc2)c1 (stereo not drawn),-2%,4%,-3%,-3%,0.3%,-7%,12%,16%
CSc1ccccc1OCc1cc(C(=O)NCc2cnc(C)cn2)no1,11%,0%,-20%,.,.,25%,20%,-1%
COc1ccc(C(=O)CSc2nnc(-c3cccnc3)n2Cc2ccco2)cc1,-22%,-20%,0%,9%,-4.2%,14%,-22%,-21%
Cc1cccc(-c2nc3c(c(=O)c4ccccc4n3C)c(=O)n2-c2ccccc2)c1,-14%,-22%,6%,.,.,1%,0%[46.1 µM],?
Cc1ccc(S(=O)(=O)N2CCOC2CNC(=O)C(=O)NCC(C)C)cc1 (stereo not drawn),3%,-17%,-7%,.,.,2%,.,.
Cc1ccc(S(=O)(=O)NC2CCOC(C)(C)C2)cc1 (stereo not drawn),5%,24%,-4%,5%,5.8%,0%,?,8%
Cc1ccc(OCc2n[nH]c(=S)n2-c2ccc(Cl)cc2)cc1,14%,-26%,8%,.,.,2%,-3%,-20%
O=C(O)COc1ccc(/C=C/C(=O)c2ccc3ccccc3c2)cc1,24%,?,11%,.,.,0%,22%[46.1 µM],?
COc1ccc(CCNC(=O)C(C)n2nc(C)c3sc4ccccc4c3c2=O)c(OC)c1 (stereo not drawn),.,-17%,.,-16%,?,.,?,-19%[46.1 µM]
COc1cccc(CNn2cnnc2)c1OCc1ccccc1F,17%,7%,1%,5%,2.6%,-3%,3%,5%
CCCCNc1nc(-c2ccccc2)nc(-n2ccnc2)n1,-2%,1%,-7%,?,3.8%,4%,?,-6%
Cc1ccc(NS(=O)(=O)c2ccc(C(=O)NCC(c3ccco3)N3CCCCC3)cc2)cc1 (stereo not drawn),6%,8%,.,.,.,1%,?,?
COCc1cc(C)nc2oc(C(=O)c3ccccc3)c(N)c12,14%,20%,-5%,.,.,-2%,20%,?
COc1ccc(CCNCc2cccn2C)cc1OC,9%,-9%,20%,.,.,2%,.,.
COC(=O)c1c(C)[nH]c(C(=O)C(C)[N+]23CCN(CC2)CC3)c1C (stereo not drawn),-14%,-8%,0%,.,.,1%,7%[46.1 µM],-5%
O=C(CNC(=O)N1CC(=O)Nc2ccccc21)Nc1cccc(F)c1,7%,-7%,-2%,.,.,2%,.,.
NC(=O)C1CCN(C(=O)c2cc(S(=O)(=O)N3CCOCC3)ccc2Cl)CC1,-1%,21%,12%,.,.,0%,-20%[46.1 µM],12%
N#Cc1ccsc1NC(=O)CCc1ccccc1,0%,67%[activator],1%,.,.,-2%,?,.
CCn1ncc(CNC(=O)CCCSc2nc(-c3ccco3)cc(C(F)(F)F)n2)c1C,-12%,?,17%,?,-6.9%,14%,-11%,-10%
CCc1cccc(NC(=O)C2CCCN2S(=O)(=O)c2ccc3c(c2)n(C)c(=O)c(=O)n3C)c1 (stereo not drawn),-13%,-3%&-5%,-9%,-10%,-3.7%,-1%,2%&2%[46.1 µM],-5%[46.1 µM]
c1csc(-c2noc(CN3CCOCC3)n2)c1,-14%,21%,4%,.,.,0%,?,9%[46.1 µM]
O=C(N1CCCC1)C12CC3CC(CC(C3)C1)C2,10%,.,4%,-5%,-0.8%,?,21%,8%
Cc1ccc(N(CC(=O)NCc2ccco2)S(=O)(=O)c2ccccc2)cc1,17%,23%,-11%,-1%,-0.8%,4%,-14%,-3%
O=C(O)CCCCCn1c(SCC(=O)c2ccc(O)c(O)c2)nc2ccsc2c1=O,12%,-23%,9%,-13%,-7.2%,-10%,3%,?
O=C(C1=C[C@@H](C2CC2)C[C@@H](OCc2ccc(CO)cc2)O1)N1CCOCC1,1%,-4%,2%,.,.,-2%,.,.
COc1ccc(NC(=O)COC(=O)CCC2CCCCC2)cc1,0%,7%,.,.,.,-14%,-2%[46.1 µM],2%[46.1 µM]
Cc1ccc(S(=O)(=O)Nc2ccccc2CNc2c(C)n(C)n(-c3ccccc3)c2=O)cc1,3%,.,-70%,10%,-1.9%,-2%,-4%&-10%,-6%
CCC1=C(OC(=O)N(CC)CC)N2C(=O)OC(=NCC3CC3)[C@]2(C)[C@H]2C1=CC[C@H]1C(=O)N(CC(=O)OC)C(=O)[C@H]12,20%,32%[activator],-18%,?,-1.0%,-3%,.,.
CCCCc1c(C)c(C#N)c2nc3ccccc3n2c1NCCN(C)C,8%,-16%,-45%,.,.,-4%,.,.
COCC(=O)N(Cc1cc2ccc(C)cc2[nH]c1=O)c1ccccc1C,6%,4%,-1%,.,.,-5%,20%[46.1 µM],1%[46.1 µM]
CC(=O)c1c(C)[nH]c(=S)c(C#N)c1-c1ccc(Cl)cc1,7%,-12%,10%,.,.,0%,-6%,-24%
CN(C1CCS(=O)(=O)C1)S(=O)(=O)c1ccc2ccccc2c1 (stereo not drawn),-10%,0%,.,.,.,0%,-24%[46.1 µM],-15%
O=C1CCC(C(=O)N(CCO)Cc2ccccc2)CN1CCCN1CCOCC1 (stereo not drawn),-3%,-15%,-10%,.,.,-5%,.,.
Cc1ccc2c(c1)[C@@H]1CN(C)CC[C@@H]1N2S(=O)(=O)c1ccc(F)cc1,-15%,0%,1%,5%,2.5%,2%,-19%,4%

# Compound activity from PubChem.
